GIV Gai3 FP – blocks GIV peptide binding to rat Galpha-i3; percent of control (FP), % (concentration not given with the values); Galpha-i3/FITC-GIV peptide fluorescence polarization, 90 min; active compounds read low; scaled: aluminum fluoride 0%, vehicle 100%; P08753; 210,000 compounds, 0.42% hits;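 active = replicate mean at 85% of control or lower, very high polarization wells dropped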;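 also: wells of about 15 µL received 100 nL stock; the first replicate is given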
Target sequence (P08753 whole entry, looked up): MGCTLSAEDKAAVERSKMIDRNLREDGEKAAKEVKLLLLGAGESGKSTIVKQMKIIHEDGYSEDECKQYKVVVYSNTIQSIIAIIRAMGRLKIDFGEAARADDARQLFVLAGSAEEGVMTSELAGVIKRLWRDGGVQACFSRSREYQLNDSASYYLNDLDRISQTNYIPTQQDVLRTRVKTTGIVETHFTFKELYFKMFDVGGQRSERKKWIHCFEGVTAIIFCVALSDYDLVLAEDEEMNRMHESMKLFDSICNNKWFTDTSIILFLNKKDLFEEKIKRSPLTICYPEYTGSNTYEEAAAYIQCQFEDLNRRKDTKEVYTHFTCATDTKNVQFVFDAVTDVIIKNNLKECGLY
* hit, by the source's call. A portion of the library. The share of hits here may be higher or lower than overall.

SMILES	GIV Gai3 FP
COc1ccc(N2C(N)=C(C#N)C(c3ccc4c(c3)OCO4)C3=C2CC(C)(C)CC3=O)c(OC)c1 (stereo not drawn)	112
Clc1ccc(-c2cnc3ccccc3n2)cc1Cl	112
COc1ccccc1C1CC(=O)C2=C(C1)NC(C)=C(C(=O)OC1CCCC1)C2c1cc(OC)c(OC)c(OC)c1 (stereo not drawn)	111
COc1cc(/C=C(\C#N)c2nnc3n2CCCCC3)ccc1OC(C)=O	106
CCOC(=O)CNC(=O)N1CCCC1c1cc(C(C)C)no1 (stereo not drawn)	96
CCC(C)NS(=O)(=O)c1c(C)[nH]c(C)c1-c1nnc(C2CCC2)o1 (stereo not drawn)	103
Cc1ccc(-c2nc(C3CCN(S(=O)(=O)c4ccc(C)c(F)c4)CC3)no2)cc1	101
COc1ccc(OC)c(NS(=O)(=O)c2cc3[nH]c(=O)[nH]c3cc2Cl)c1	106
COc1ccc(Br)cc1C(=O)Nc1cc(-c2nc3ncccc3o2)ccc1C	102
CCN(Cc1ccc(Cl)cc1)Cc1cc(=O)n2nc(C3CC3)sc2n1	107
CCSc1nnc(-c2nn(C)c3c2CN(S(=O)(=O)c2ccc(OC)c(Cl)c2)CC3)n1CC	112
CCc1cc(C2CCCN2C(=O)Nc2ccc(Br)cc2)on1 (stereo not drawn)	103
CC1(C)CC(N2C(=O)OC3(CCCCC3)C2(C)O)CC(C)(C)N1 (stereo not drawn)	105
O=S(=O)(c1cccc2nsnc12)N1CCC(Cc2ccccc2)CC1	105
c1ccc(-c2nnc(-c3cccnc3NC3CCCC3)o2)cc1	108
CC1CCN(C(=O)CN2C(=O)CN(C(=O)Nc3ccccc3)c3ccccc32)CC1	99
CCOC(=O)C1=NN(c2ccc(Br)cc2)C2(S1)c1ccccc1C(c1ccc(C)cc1)=NN2c1ccccc1 (stereo not drawn)	104
Cc1nn(-c2nc3ccccc3n2C)c2c1C(c1ccc(F)cc1Cl)CC(=O)N2 (stereo not drawn)	102
Cc1ccc(C(=O)[C@H]2[C@H](c3ccc(F)cc3)C(C#N)(C#N)[C@@H]3c4ccccc4C=CN32)cc1	120
O=C1C2C3c4ccccc4C(c4ccccc43)C2C(=O)N1c1ccc2ccccc2c1 (stereo not drawn)	109
CCN1CCCC1CNC(=O)c1sc2ncnc(N(C)c3ccccc3)c2c1C (stereo not drawn)	101
Cn1c(=O)c2c(nc(N3CCOCC3)n2CC(=O)c2ccc(Br)cc2)n(C)c1=O	99
CCCCCCOc1ccc2c(c1)C(=O)c1cc(OCCCCCC)ccc1-2	103
O=S(=O)(Nc1ccc(Cl)cn1)c1cc(-c2noc(C3CC3)n2)cs1	98

Random excerpt: 2 entries already listed.
SMILES	GIV Gai3 FP
Cc1ccc(-c2nc(C3CCN(S(=O)(=O)c4ccc(C)c(F)c4)CC3)no2)cc1	101
CCSc1nnc(-c2nn(C)c3c2CN(S(=O)(=O)c2ccc(OC)c(Cl)c2)CC3)n1CC	112

Continued.
SMILES	GIV Gai3 FP
CC1(c2ccccc2)CC(C)(C)N(C(=O)Nc2cccc(Cl)c2)c2ccccc21 (stereo not drawn)	101
Cc1cc(C)cc(N2C=NS(=O)(=O)c3cccnc32)c1	103
Cc1nn(-c2nc3ccccc3o2)c2c1C(c1ccccc1F)CC(=O)N2 (stereo not drawn)	105
CCOc1ccc(NC(=O)CSc2nc3n[nH]c(C)c3c(=N)n2-c2ccc(OCC)cc2)cc1	107
Cn1c(SCc2cc(=O)c3cc(F)ccc3[nH]2)nnc1-c1ccccc1	101
C=CCOc1ccc(/C=c2\sc3nc(=O)c(C)nn3c2=O)cc1	105
O=S(=O)(Cc1nc(-c2ccc3c(c2)OCO3)no1)c1ccccc1	101
O=C(C1=NN(c2ccc(Br)cc2)C2(S1)c1ccccc1C(c1ccc(Br)cc1)=NN2c1ccccc1)c1ccccc1 (stereo not drawn)	104
CCOC(=O)c1cccc(NC(=O)Cn2c(=O)c(CCC(=O)NC3CCCC3)nc3ccccc32)c1	96
COc1cccc(Cn2c(=O)n(-c3ccccc3)c(=O)c3c4c(sc32)CN(C(C)=O)CC4)c1	99
O=C(CSc1nc2ccc(NS(=O)(=O)c3ccccc3)cc2s1)NCc1ccco1	103
COC(=O)c1ccccc1NC(=O)c1sc2ncn(CC(=O)Nc3ccc(C)c(Cl)c3)c(=O)c2c1C	111
Clc1ccc(CC(Cc2nc3ccccc3[nH]2)c2nc3ccccc3[nH]2)cc1 (stereo not drawn)	102
CCc1ccc(N/C(SCc2ccc(Cl)cc2)=C(/C#N)C(=O)NCc2ccc3c(c2)OCO3)cc1	108
CC1CC(C)CN(S(=O)(=O)c2ccc3c(c2)Cc2cc(S(=O)(=O)N4CC(C)CC(C)C4)ccc2-3)C1 (stereo not drawn)	109
Fc1ccc(Nc2nc3nonc3nc2Nc2ccc(F)cc2F)c(F)c1	107
CC(C)c1cc(C2CCCN2S(=O)(=O)c2ccc(Cl)cc2)on1 (stereo not drawn)	96
Cc1cc(NC(=O)CN2C(=O)COc3ccc(S(=O)(=O)N4CCC(C)CC4)cc32)ccc1Br	108
O=C(CCC1CCCC1)Nc1cc(-c2ccco2)no1	105
O=C(Nc1ccccc1C(=O)N1CCN(c2ccccc2)CC1)c1cccc(S(=O)(=O)N2CCCC2)c1	108
CC(=O)NC1C(OC(C)C)OC(COC(C)=O)C(OC(C)=O)C1OC(C)=O (stereo not drawn)	109
CCc1nc(-c2csc(S(=O)(=O)N3CCCC(C(=O)NC4CCCC4)C3)c2)no1 (stereo not drawn)	104
Cc1ccc(Cl)cc1N1C(=O)C(N2C(=O)c3ccccc3C2=O)C1c1ccc(F)cc1 (stereo not drawn)	109
CCN(Cc1ccc(F)cc1)Cc1cc(=O)n2nc(C(C)C)sc2n1	115

As a working copy, 6 of the compounds above:
SMILES	GIV Gai3 FP
CCc1ccc(N/C(SCc2ccc(Cl)cc2)=C(/C#N)C(=O)NCc2ccc3c(c2)OCO3)cc1	108
CC1CC(C)CN(S(=O)(=O)c2ccc3c(c2)Cc2cc(S(=O)(=O)N4CC(C)CC(C)C4)ccc2-3)C1 (stereo not drawn)	109
Fc1ccc(Nc2nc3nonc3nc2Nc2ccc(F)cc2F)c(F)c1	107
CC(C)c1cc(C2CCCN2S(=O)(=O)c2ccc(Cl)cc2)on1 (stereo not drawn)	96
Cc1cc(NC(=O)CN2C(=O)COc3ccc(S(=O)(=O)N4CCC(C)CC4)cc32)ccc1Br	108
O=C(CCC1CCCC1)Nc1cc(-c2ccco2)no1	105

Next section
SMILES	GIV Gai3 FP
CCc1ccc(NC(=O)Nc2ccc(-c3nc4ccccc4s3)cc2)cc1	100
O=C1C2C3c4ccccc4C(CO)(c4ccccc43)C2C(=O)N1c1ccc([N+](=O)[O-])cc1 (stereo not drawn)	108
CCc1cc(C2CCCN2C(=O)c2cc(C(F)(F)F)nn2C)on1 (stereo not drawn)	96
C=CCOc1ccc(C(C2=C(O)CC(C)(C)CC2=O)C2C(=O)CC(C)(C)CC2=O)cc1 (stereo not drawn)	120
COc1c(Cl)cc(Cl)cc1C(Nc1cccc2ccccc12)P1(=O)OCC(C)(C)CO1 (stereo not drawn)	104
Cc1[nH]c2ccccc2c1C(=O)CSc1nnc2c(=O)n(-c3ccccc3)ccn12	107
COc1ccc(C=Nc2ccc(/C=C3\C(=O)C(C(C)C)CCC3C)cc2)cc1 (stereo not drawn)	99
COc1ccc(OC)c(NC(=O)c2ccc3c(=O)n(-c4cc(OC)ccc4OC)c(=S)[nH]c3c2)c1	102
CN(C(=O)c1ccc(-c2cccc(F)c2)nc1)C1CCCCC1	102
COc1ccc(OC)c(-n2c(SCC(=O)Nc3ccccc3C(F)(F)F)nc3c(c2=O)SCC3)c1	106
CC1CCCCC12NC(=S)N(c1ccccc1)N2 (stereo not drawn)	105
Cc1cc(N2CCCCC2)n2c(nc3ccccc32)c1C#N	108
CCOc1ccccc1NS(=O)(=O)c1cc(-c2cc(C(F)(F)F)on2)sc1C	104
O=C(Nc1nnc2n1CCCS2)C1CCCC1	104
COc1cc(C2Nc3ccc4ccccc4c3C3=C2C(=O)CC(C)(C)C3)cc(Br)c1OC (stereo not drawn)	116
Cc1nc2c3ccccc3n(CC(=O)N3CCN(c4ccccc4F)CC3)c(=O)n2n1	96
Cc1ccc(/C=N/NC(=O)C2C(c3ccccc3)C(C(=O)N3CCOCC3)C2c2ccccc2)cc1 (stereo not drawn)	104
COc1ccccc1CNC(=O)C1CCCN1S(=O)(=O)c1cc2c(cc1C)NC(=O)CO2 (stereo not drawn)	99
CCCCNc1ncnc2sc(CC)cc12	105
COc1ccc(Nc2nc(N3CCOCC3)nc(N3CCN(c4ccc(OC)cc4)CC3)n2)cc1	100
Cc1ccc(-n2c(-c3ccncc3)n[nH]c2=S)cc1	103
COc1ccc(-n2nc3c(c2NC(=O)c2ccc(S(=O)(=O)N4CCCCC4)cc2)CS(=O)(=O)C3)cc1	107
CCOC(=O)c1c(CN(C(=O)CN2CCCCC2)c2ccccc2)n(-c2ccccc2)c2cc(Br)c(OC)cc12	106
CN(C)S(=O)(=O)c1cc2c(cc1NC1CCCCC1)Oc1ccccc1NC2=O	108
CCC12c3ccccc3C(c3ccccc31)C1C(=O)N(c3ccc(C)c(Cl)c3)C(=O)C12 (stereo not drawn)	105
COc1cc(C2CC(=O)Nc3c2cnn3-c2ccc3nnc(C)n3n2)ccc1OC(C)C (stereo not drawn)	101
O=C(Nc1ccc(Cl)c(Cl)c1)c1cc([N+](=O)[O-])ccc1N1CCCCC1	101
CCOC(=O)c1ccc(NC(=O)COC(=O)CC2(CC3=NS(=O)(=O)c4ccccc4N3)CCCC2)cc1	99
Cc1cc(N(C)C)nc(N2CCN(S(=O)(=O)c3cc(C)c(C)cc3C)CC2)n1	100
CCCCC(=O)N1CCN(c2cc(=O)n(C(C)C)c(=O)n2C(C)C)CC1	103
O=C1OC(c2ccccc2)c2ccccc21 (stereo not drawn)	109
CCN1CCN(c2cc(C)nc3nc(CN4CCN(c5ccccn5)CC4)nn23)CC1	102
CCOC(=O)C1=C(N)Oc2ccc3ccccc3c2C1c1ccncc1 (stereo not drawn)	104
O=C(NCc1ccccc1)N1CCOc2ccc(COCc3ccccc3F)cc2C1	104
Cc1ccc(Nc2nc(NCCCO)nc3c2cnn3-c2ccccc2)cc1	101
Oc1ccc2ccccc2c1C(c1ccc(Br)cc1)N1CCCCC1 (stereo not drawn)	105
Cc1ccc(-n2nc(C)c3c(=O)n(CC(=O)NCc4ccc(C)c(C)c4)ccc32)cc1	104
CCOC(=O)c1[nH]c(C)c(CCC(=O)NC2CCS(=O)(=O)C2)c1C (stereo not drawn)	103
Cc1cc(C)c(S(=O)(=O)N2CCCC2c2nc(-c3ccc(F)cc3)no2)c(C)c1 (stereo not drawn)	102
Cc1[nH]n(-c2ccccc2)c(=O)c1C(c1cccc(O)c1)c1c(C)[nH]n(-c2ccccc2)c1=O	66*
CS(=O)(=O)Nc1ccc(C2(C(=O)NCc3ccc(C(F)(F)F)cc3)CCC2)cc1	106
Cc1cc(N(C)C)nc(Nc2ccc(NC(=O)C(C)C)cc2)n1	102
Cc1cccc(-n2cc(C3CCN(C(=O)C(C)(C)C)CC3)cn2)c1	95
COc1cc(C2Nc3ccc4ccccc4c3C3=C2C(=O)CC(C)(C)C3)cc(OC)c1OC (stereo not drawn)	118
CC1CCN(c2nc3c(c(=O)n(C)c(=O)n3C)n2CC(=O)c2ccc(Br)cc2)CC1	109
COCCCNC1=NCCCNC12CCCCC2	101
CCOc1ccc(-c2[nH]nc3c2C(c2ccc(O)c(OC)c2)C(C#N)=C(N)O3)cc1OC (stereo not drawn)	101
O=C(CCCc1nc2cccnc2n1Cc1ccc(F)cc1)N1CCN(Cc2ccccc2)CC1	110

Part of the list above in order of molecular weight, descending:
SMILES	GIV Gai3 FP
Cc1ccc(-n2nc(C)c3c(=O)n(CC(=O)NCc4ccc(C)c(C)c4)ccc32)cc1	104
Cc1cccc(-n2cc(C3CCN(C(=O)C(C)(C)C)CC3)cn2)c1	95
Cc1cc(N(C)C)nc(Nc2ccc(NC(=O)C(C)C)cc2)n1	102

New compounds follow
SMILES	GIV Gai3 FP
COc1ccc(C(=O)[C@H]2[C@H](c3ccc(SC)cc3)C(C#N)(C#N)[C@@H]3c4ccccc4C=CN32)cc1	126
O=C(CCc1nc(CSc2n[nH]c(-c3ccccc3)n2)no1)Nc1cccc(Br)c1	109
CC(C)COCC1CC2(CC(C)(c3csc(Nc4ccccc4Cl)n3)OC2=O)C(=O)O1 (stereo not drawn)	104
Cc1ccc(C2(O)CN(c3ccccc3)C3=[N+]2CCCS3)c(C)c1 (stereo not drawn)	105
CCNc1nc(C(N)=O)c(NC(=O)c2cccc(Cl)c2)s1	106
Cc1nc(N2CCN(C)CC2)c2c(C)c(C(=O)Nc3cccc(Cl)c3)sc2n1	94
CC(=O)NC1C(OCc2ccccc2Cl)OC(COC(C)=O)C(OC(C)=O)C1OC(C)=O (stereo not drawn)	111
Cc1nn(-c2ccc3nncn3n2)c(C)c1Sc1nnc(N)s1	101
O=C(CNC(=O)c1ccccc1)NCC(=O)N1CCCc2ccccc21	97
O=[N+]([O-])c1cccc(-c2nc(-c3ccccc3)c(-c3ccc(-c4ccccc4)cc3)[nH]2)c1	99
NNc1nc(N)c2c(n1)-c1ccccc1CC21CCCC1	112
COc1cc(-c2ccccc2O)ncn1	107
Cc1ccc(N2C(=O)/C(=C/c3ccc(Br)cc3)C=C2c2ccccc2)c(Br)c1	113
CC(=O)Oc1ccc(C2C(C(=O)OCC3CCCO3)=C(C)NC3=C2C(=O)CC(c2cccs2)C3)cc1 (stereo not drawn)	107
COc1ccc2[nH]c3nc4cc5ccccc5cc4nc3c2c1	122
Cc1ccc(C2C(C#N)=C(SCC(=O)Nc3ccc(Br)cc3)NC3=C2C(=O)CCC3)o1 (stereo not drawn)	120
